# E coli growth = E. coli growth inhibition, primary screen, OD600. Escherichia coli growth, 23 h; stronger effect = lower value. OD600 absorbance (concentration not given with the values). actives 0.21% (n = 330,000);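 active = OD600 absorbance below the run mean of sample wells minus 3.6 SD, in any replicate, cut at about 0.56 in these data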;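 note: stock transfer was 300 nL into about 60 µL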
# UCH37 DUB inh = inhibitors of human UCH37 deubiquitinase, primary screen, biochemical, Ub-AMC cleavage, fluorescence. AID 588478, 2011. actives 0.33% (n = 330,000). inhibition, % (no concentration beside the values). purified proteasome/UCH37. Ubiquitin carboxyl-terminal hydrolase isozyme L5 (Homo sapiens), Q9Y5K5;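 active = mean of two replicates above 20%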;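 note: 0% = compound-free wells with enzyme and 100% = wells lacking proteasome; stock transfer was 100 nL into about 20 µL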
# Target sequence (Q9Y5K5 whole entry, looked up): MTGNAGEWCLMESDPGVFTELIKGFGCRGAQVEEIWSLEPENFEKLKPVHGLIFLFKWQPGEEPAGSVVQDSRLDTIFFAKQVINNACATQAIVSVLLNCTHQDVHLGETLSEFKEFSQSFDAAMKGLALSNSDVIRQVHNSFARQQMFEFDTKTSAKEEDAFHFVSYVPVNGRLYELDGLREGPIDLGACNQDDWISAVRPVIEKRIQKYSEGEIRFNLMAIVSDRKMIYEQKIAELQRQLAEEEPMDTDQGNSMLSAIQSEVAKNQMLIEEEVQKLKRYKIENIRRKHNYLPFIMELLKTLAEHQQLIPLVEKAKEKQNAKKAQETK
#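 Material: Human UCH37 enzyme supplied as purified proteasome complex | Schedule: 30 min preincubation with enzyme, 25 min cleavage at room temperature | Detection: AMC fluorescence 355/460 nm | Measure: % inhibition of Ub-AMC cleavage fluorescence | Controls: Wells without proteasome as full block, compound-free enzyme plus substrate as uninhibited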
# FGF22 binding = binders of human FGF22 protein, primary screen, FGF22 synaptogenesis inhibitor project, biophysical, thermal shift, single point; actives 1.5% (n = 340,000); Fibroblast growth factor 22 (Homo sapiens), Q9HCT0; AID 651658, 2012; recombinant FGF22 thermal shift, SYPRO orange fluorescence; percent of sucrose octasulfate shift, DMSO zero; calls only at 9.99 µM;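 active = melting point raised past a set limit in the mean and every replicate; three in four hits are not shown here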
# Target sequence (Q9HCT0 whole entry, looked up): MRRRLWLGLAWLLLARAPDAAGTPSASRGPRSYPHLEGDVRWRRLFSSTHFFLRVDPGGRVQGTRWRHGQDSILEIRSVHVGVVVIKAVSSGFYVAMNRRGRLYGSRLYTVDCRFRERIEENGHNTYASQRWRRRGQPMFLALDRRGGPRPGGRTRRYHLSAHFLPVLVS
# T cruzi inh = inhibitors of intracellular T. cruzi growth, primary screen, luminescence, NIH3T3 host cells; actives 1.4% (n = 300,000); T. cruzi beta-gal in NIH3T3, 90 h; inhibition, % (concentration not given with the values);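 active = mean inhibition across valid replicates above about 55%, limit read from the data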;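 note: signal also drops with host cell toxicity which is not excluded here; 0% = plate median of DMSO wells and 100% = zero luminescence signal; higher percent means less beta-gal luminescence so fewer parasites; stock transfer was 50 nL into about 50 µL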
# MLL AF4-AF9 inh = inhibitors of AF4 peptide binding to AF9, primary screen, biochemical, AlphaScreen, biotin-AF4 peptide, FLAG-AF9, single point; actives 0.47% (n = 350,000); inhibition, % at 10 µM;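 active = every replicate reaching a set inhibition limit, whatever the replicate mean, cut at about 25% in these data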;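 note: 0% = plate neutral control median and 100% = total signal loss; the record names both 10 and 1 µM as test concentration; the first replicate is given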
# Target sequence (P42568 whole entry, looked up): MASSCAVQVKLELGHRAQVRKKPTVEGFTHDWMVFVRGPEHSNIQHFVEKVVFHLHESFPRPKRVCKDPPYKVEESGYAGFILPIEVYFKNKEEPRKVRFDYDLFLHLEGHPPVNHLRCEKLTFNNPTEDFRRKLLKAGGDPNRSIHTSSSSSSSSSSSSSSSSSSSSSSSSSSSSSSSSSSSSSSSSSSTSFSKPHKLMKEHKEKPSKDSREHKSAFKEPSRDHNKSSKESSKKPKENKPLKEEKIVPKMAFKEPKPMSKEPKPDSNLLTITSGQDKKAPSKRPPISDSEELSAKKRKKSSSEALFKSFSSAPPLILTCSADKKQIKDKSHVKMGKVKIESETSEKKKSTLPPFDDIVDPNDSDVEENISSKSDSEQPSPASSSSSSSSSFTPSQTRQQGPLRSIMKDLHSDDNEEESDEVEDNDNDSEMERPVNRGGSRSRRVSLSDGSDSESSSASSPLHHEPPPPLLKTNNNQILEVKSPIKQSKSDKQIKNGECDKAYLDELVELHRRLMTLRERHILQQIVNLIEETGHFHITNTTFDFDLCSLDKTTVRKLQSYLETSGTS
# Beta cell apopt = inhibitors of cytokine-induced beta cell apoptosis, primary screen, luminescence; INS-1E cytokine-induced death, ATP luminescence, 48 h; percent of positive-control rescue, neutral wells zero; protection from apoptosis, % (test concentration not listed); actives 0.8% (n = 300,000);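 active = all replicates at 75% or more, or half of them and the mean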;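 note: 0% = cytokine-treated negative control wells and 100% = positive control rescue; higher means more ATP so stronger rescue from cytokine killing; wells of about 40 µL received 100 nL stock; the first replicate is given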
# Bfl-1 A1 inh = caspase 3/7 activation in MEF A1-2A-BIM cells, primary screen, A1 inhibitor project, cell-based, luminescence, HTS | Caspase-Glo 3/7 luminescence, 3 h; percent of clofoctol response, vehicle zero | caspase activation, % (test concentration not listed) | actives 0.066% (n = 330,000);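 active = over half of replicate activation scores above 10%, or exactly half above 10 with the replicate mean above 10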;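 note: wells of about 30 µL received 50 nL stock; many hits fall short of the cut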
# Ecoli rRNA inh = reduced GFP signal of wild-type E. coli, primary screen, bacterial rRNA inhibitor project, GFP/RFP fluorescence, OD600, single point; E. coli WT GFP vs humanized-ribosome RFP mutants, 24 h; stronger effect = lower value; DMSO median 0, no signal -100; GFP signal change (wild-type ribosome), % (no concentration beside the values); actives 1.6% (n = 350,000); AID 720706, 2013;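 active = significant combined selectivity score with lowered wild-type GFP, culture density cut under 30%, mutant RFP and density less affected; inactive = any of these conditions unmet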; note: one replicate is shown; some compounds called inactive have numbers as strong as hits
# Ecoli rRNA inh OD600 = further read-out of Ecoli rRNA inh, marked with its call; OD600 change, %; measured here: OD600 growth;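 optical density of the mix in the first replicate; 0 = DMSO median and -100 = no signal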
# Ecoli rRNA inh RFP = second read-out of Ecoli rRNA inh, no call of its own (marks repeat the call); RFP signal change, %; measured here: RFP humanized mutant strains;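 first replicate; 0 = DMSO median and -100 = no signal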
# An asterisk follows results filed as active; i = inactive; . = no result given; + = active, no number. An excerpt; rates above refer to the full screens.
# Values run as follows: FGF22 binding, Ecoli rRNA inh OD600, Bfl-1 A1 inh, UCH37 DUB inh, Ecoli rRNA inh RFP, E coli growth, Beta cell apopt, T cruzi inh, Ecoli rRNA inh, MLL AF4-AF9 inh
O=S(=O)(Nc1ccc(F)cc1Cl)c1ccc(-c2cnc(C3CC3)o2)cc1
    i, -68.2, ., 0.3, -5.2, 0.695, ., -15.4, -48.3, -0.8
Cc1ccc(C(=O)N2C3C=CC(C3)C2(C(F)(F)F)C(F)(F)F)cc1 (centres undefined)
    ., ., 0.4, 2.7, ., 0.691, -7.0, -6.4, ., .
O=C(NCCN1CCOCC1)c1ccccc1[N+](=O)[O-]
    ., ., -1.0, 0.4, ., 0.703, -3.4, 1.8, ., .
COc1ccccc1N/C=C/C(=C(C#N)C#N)N(C)C
    ., 16.8, -0.9, 6.1, 3.5, 0.604, -2.5, 3.3, 13.9, 2.3
COc1cc(NC(=O)C2C3C=CC(C3)C2C(=O)O)ccc1NC(=O)c1ccccc1 (centres undefined)
    i, 5.9, 0.2, 0.1, 1.9, 0.689, -1.1, 11.6, 0.2, 3.7
O=C(NC1CCCC1)C1CCN(C(=O)c2cc(Cl)ccc2Cl)CC1
    i, 11.9, 0.8, 2.8, -1.5, 0.705, 5.1, -5.6, 2.2, -8.2
Cc1cc(C(=O)CN2CCCCC2)c(C)n1-c1ccc(F)cc1
    ., ., 0.0, 4.2, ., 0.653, -3.5, 23.7, ., .
O=C(CN1CCN(Cc2ccccc2)CC1)NC(c1ccccc1)c1ccccc1
    i, -12.4, 0.2, 0.7, -0.7, 0.649, -10.5, 0.4, -18.8, 7.1
O=[N+]([O-])c1ccc(C(O)CN2CCN(c3ccccc3)CC2)cc1 (centres undefined)
    i, 2.7, 2.3, 4.4, -1.4, 0.678, 1.6, 13.8, 4.8, 2.9
CCn1c(Cc2ccc(OC)cc2)nnc1SCC(=O)NC1CC1
    i, 11.7, 1.1, ., 2.4, ., 1.0, -16.1, 4.4, -0.1
O=C(Nc1nnc(CCc2ccccc2)s1)c1ccc(F)cc1
    i, 5.8, -0.7, -1.9, -1.6, 0.607, -2.7, -1.2, 8.9, -1.7
Cc1ccc(CC(=O)NCC2CCCCC2)cc1
    ., ., 0.2, 4.6, ., 0.702, 0.2, -0.7, ., .
O=C(CCc1nnc(CCC2CCCCC2)o1)NCCc1ccccn1
    i, 3.0, 0.3, 2.4, -0.5, 0.713, -3.8, 1.4, 6.7, 0.4
CCc1ccc2c(c1)CCCN2C(=O)c1ccccc1C(=O)O
    ., ., 1.0, -0.8, ., 0.706, 14.0, 38.2, ., .
OC(Cc1cccnc1)c1ccccc1 (centres undefined)
    i, 13.3, ., -1.6, -0.5, 0.708, ., ., 4.8, -1.1
O=C(O)C1C2C=CC(C2)C1C(=O)Nc1ccc(C(=O)N2CCCCC2)c(Cl)c1 (centres undefined)
    ., -5.0, -2.4, 4.5, -0.9, 0.706, -0.6, 6.5, 6.0, .
CCOC(=O)N1CCC(NC(=O)c2ccc3c(c2)sc2nc(-c4ccc(OC)cc4)cn23)CC1
    ., ., 0.7, -6.2, ., 0.752, -5.7, -6.6, ., .
COc1cccc(-c2nnc(SCN3C(=O)c4ccccc4C3=O)n2C)c1
    ., ., 0.8, 1.3, ., 0.691, 0.5, 2.1, ., .
COc1ccc(NC(=O)c2nn(C)c(=O)c3ccccc23)cc1S(=O)(=O)Nc1ccccc1Cl
    i, 4.3, -0.6, ., 3.3, ., 19.7, 28.4, 7.7, -1.9
CC1=C(C(=O)OC(C)C)C(c2c(O)ccc3ccccc23)NC(=O)N1 (centres undefined)
    i, 6.1, 0.3, 6.3, -1.9, 0.753, -5.1, -6.5, 2.6, 0.7
COc1ccc(-c2csc(C)n2)cc1
    ., ., -5.6, -0.4, ., 0.652, 0.9, -0.9, ., .
COc1ccc(C(=O)NCc2cn3c(C)csc3n2)cc1OC
    i, 2.1, 0.9, 1.1, -1.3, 0.652, -0.2, -9.6, 1.0, -1.5
O=C(CCN1C(=O)c2ccccc2S1(=O)=O)N1CCN(c2ccccc2)CC1
    ., ., -0.1, 1.9, ., 0.725, -0.9, -1.1, ., .
Cc1cc(C)nc(SCC(=O)Nc2ccc(S(=O)(=O)Nc3cc(C)on3)cc2)n1
    i, 12.1, 0.2, 1.1, 1.3, 0.715, -10.1, -0.7, 7.0, -1.3
CCOc1ccc(CCNC(=O)COC(=O)c2cc(OC)c(OC)cc2[N+](=O)[O-])cc1OCC
    i, 7.9, -0.7, 1.9, -2.2, 0.607, -1.7, 2.5, 4.5, 4.2
COC(=O)c1cn(Cc2c(C)cc(C)cc2C)nn1
    ., ., 0.0, 4.2, ., 0.696, -4.4, -6.0, ., .
COc1ccc2o/c(=N\O)c(C(=O)Nc3ccc(C)cc3)cc2c1
    +, 12.4, ., ., -3.1, ., ., -26.4, -11.0, -1.9
CCCNc1ncnc2c1cnn2C1CCCCO1 (centres undefined)
    i, 8.6, ., 0.8, -1.3, 0.671, ., ., 1.0, -0.4
O=C(COc1ncnc2cc(Cl)ccc12)c1ccc2c(c1)OCCO2
    i, 12.4, 1.5, 4.8, 0.8, 0.689, 0.0, -9.1, 11.0, 1.0
N#Cc1c2n(c(=S)n(-c3ccccc3)c1=O)CCCCC2
    i, 2.7, 1.7, 5.3, -2.8, 0.714, -4.7, -2.0, 8.3, -0.4
Cc1ccc(C(=O)NC(=S)NNC(=O)c2cccc([N+](=O)[O-])c2)cc1
    i, -31.6, -0.2, 5.8, -5.2, 0.65, -0.9, -7.5, -27.4, -11.6
COc1cc(CN2CCN(Cc3cn(C)c4ccccc34)CC2CCO)cc(OC)c1 (centres undefined)
    i, 5.8, 0.4, 1.8, 1.1, 0.675, ., -4.6, 1.9, 5.2
CCOC(=O)Cn1nc(C)c(NC(=O)c2ccc(Cl)c([N+](=O)[O-])c2)c1C
    i, 7.9, 1.6, 1.3, -0.1, 0.707, -3.4, -4.8, 3.3, -2.1
NS(=O)(=O)c1ccc(CCNC(=O)CSc2nnc3ccccn23)cc1
    i, 8.9, -0.6, -1.2, 1.7, 0.653, -3.5, -10.0, 2.6, -10.3
CCCCCC(=O)Nc1cc(S(=O)(=O)N2CCOCC2)ccc1N1CCCCC1
    i, -2.6, 0.3, 0.6, -2.4, 0.625, -2.4, 14.8, -0.3, -0.1
CCc1nonc1NC(=O)c1oc2c(C)c(C)ccc2c1C
    i, -5.3, ., -0.6, -2.3, 0.71, ., 10.9, -0.4, -2.9
COc1ccc(C(=O)NC2CCCc3ccccc32)cc1OC1CCN(C(C)=O)CC1 (centres undefined)
    i, 4.0, 0.3, 5.3, -1.3, 0.703, 2.1, -7.2, -3.2, 6.9
Cc1cc(S(=O)(=O)Nc2ccc(N3CCOCC3)cc2)ccc1Br
    i, -41.5, 0.4, 1.3, 5.9, 0.7, -1.5, 14.2, -17.1, 6.7
CCCN(CC(=O)Nc1ccc(F)c(F)c1F)C(=O)c1ccc(=O)n(Cc2ccccc2)n1
    i, -8.9, 0.0, -1.1, -0.7, 0.675, 0.6, 3.6, -4.1, 1.5
Cc1sc2ncnc(N[C@@H](Cc3ccccc3)C(=O)O)c2c1C
    i, -8.0, -1.0, 1.0, -3.3, 0.69, 4.1, 1.2, -2.1, 1.0
Cc1oc2c(CN3CCCCC3C)c(O)ccc2c(=O)c1-c1ccccc1 (centres undefined)
    i, 11.9, 0.6, i, 2.4, 0.641, -3.4, -2.8, 8.0, -0.2
Cn1cc(S(=O)(=O)CC(=O)Nc2ccc(Br)cc2)c2ccccc21
    i, -11.4, 0.1, 5.8, 2.1, 0.75, ., -2.1, -18.3, -0.5
C[C@H](CO)N1C[C@H](C)[C@@H](CN(C)Cc2ccc(C(=O)O)cc2)Oc2c(NC(=O)Cc3ccccc3)cccc2C1=O
    i, 7.7, 0.6, 0.6, 2.1, ., -8.9, ., 9.2, 6.3
CC(C)CC(C(=O)OCC(=O)Nc1cccc(Cl)c1)N1C(=O)C2CC=CCC2C1=O (centres undefined)
    i, ., 0.8, 1.8, ., 0.662, 0.8, -7.9, ., -1.6
Cc1cccc(Cc2nnc(CCC(=O)N3CCCCC3c3nccs3)o2)c1 (centres undefined)
    i, -6.0, -0.3, 0.3, 0.7, 0.691, -1.1, -0.9, -4.8, 0.2
Cc1oc2c(O)c(O)ccc2c(=O)c1-c1cnn(-c2ccccc2)c1
    ., ., 0.0, 11.6, ., 0.734, -2.1, -20.6, ., .
CC1=NN(C(N)=S)C(=O)C1N=Nc1ccc(C)cc1C (centres undefined)
    ., ., -6.5, -3.9, ., 0.759, 33.9, 38.1, ., .
C=CCn1c(C)cc(C(=O)COc2ncnc3sccc23)c1C
    ., ., -0.7, 2.1, ., 0.677, 0.2, 3.5, ., .
O=C(c1ccc(-c2cc3ccccc3oc2=O)cc1)N1CCN(c2ccc(Cl)cc2[N+](=O)[O-])CC1
    ., ., 0.5, 2.8, ., 0.712, 9.3, 52.6, ., .
N#Cc1cccn1-c1nccc(-c2cccs2)n1
    i, -37.2, 1.2, 3.2, -7.1, 0.69, -6.0, 18.6, -23.8, -5.8
O=C(O)CCCNc1ccc([N+](=O)[O-])c(NCCCC(=O)O)n1
    i, 2.9, 0.8, 10.9, 3.0, 0.652, 1.1, 0.4, -0.1, -0.5
Cc1ccc(-c2csc3ncn(CC(=O)N4CCOCC4)c(=O)c23)cc1C
    ., ., 0.2, 3.2, ., 0.741, ., -10.0, ., .
Cc1ccc(OCCNC(=O)/C=C/c2ccco2)cc1C
    i, 10.6, -0.6, 5.4, 2.1, 0.722, -0.9, -33.4, 8.6, -1.4
Cc1ccccc1-c1nnn(CC(=O)Nc2ccc3c(c2)OCCO3)n1
    i, 2.7, 0.3, -0.8, -0.6, 0.752, -14.6, -12.9, -2.0, -0.6
CCN(CC)c1ccc(/C=N/NC(=O)c2ccc3nc[nH]c3c2)cc1
    i, 1.1, -0.3, ., -0.3, ., 0.3, ., -2.7, 4.0
COc1cc(C2C3=C(Nc4ncnn42)c2ccccc2CC3)cc(OC)c1OC (centres undefined)
    ., ., -0.4, 0.1, ., 0.691, 35.0, 24.8, ., .
S=C(NCCSCc1ccc(Cl)cc1Cl)Nc1ccccc1
    ., ., 0.2, 1.2, ., 0.654, -0.2, -21.4, ., .
CCOc1ccc2ccccc2c1/C=N/NC(=O)CNC(=O)Cc1ccccc1
    i, 17.8, -0.1, ., -1.0, ., -2.1, 0.3, 4.7, -11.9
CC(NC(=O)c1ccccc1)C(c1cccs1)N1CCOCC1 (centres undefined)
    i, 7.5, 0.2, 4.1, -3.0, 0.755, -0.6, -5.0, -2.0, 1.2

# Screening results as filed in PubChem.
